High-throughput results from PubChem.
ClpP mod: qHTS Assay for Activators of ClpP; hit rate 1.9% among 340,000; purified B. subtilis ClpP, FRET peptide cleavage, 20 min; Potency, µM (highest dose often 57.5 µM), without a hit: at the highest dose activity change, negative = active; ATP-dependent Clp protease proteolytic subunit (Bacillus subtilis (strain 168)), P80244; active = well fitted falling curve with a large enough effect; inconclusive = small, poorly fitted or top-dose-only effect; inactive = no such curve, though single readings can be large or run the other way; further: potency means the concentration at half of the fitted maximal effect; the source files actives as falling curves though it sought activators and does not explain the sign; nearly all actives have a fitted effect of over 65% in size; many hits overshoot -100%
Target sequence (P80244 whole entry, looked up): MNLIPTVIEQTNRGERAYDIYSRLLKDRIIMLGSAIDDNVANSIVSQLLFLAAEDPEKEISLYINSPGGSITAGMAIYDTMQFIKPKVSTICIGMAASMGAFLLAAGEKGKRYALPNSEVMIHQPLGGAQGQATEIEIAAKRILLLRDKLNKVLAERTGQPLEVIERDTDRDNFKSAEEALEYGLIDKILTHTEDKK
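ClpP 10 microg/mL final, pH 8 Tris/KCl buffer with BSA, glycerol, Tween-20; compound pinned in; FRET-FV substrate; RT 20 min; Ex320/Em430; ΔFRET vs ADEP 5.8 microM, DMSO, no enzyme.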
gsp ag: activates gsp, the McCune-Albright syndrome mutation. AID 624287. Potency, µM (titrated, usually from 76.9 µM), without a hit: at the top dose activation (cAMP increase), usual class: activators. gsp mutant cells, cAMP HTRF, 30 min; control for the full effect not named in the record. hit rate 0.13% among 340,000; active = well fitted activation curve with a large enough effect; inconclusive = small, poorly fitted or top-dose-only effect, or another doubt; inactive = no such curve, though single readings can be large or run the other way; cell line not stated here;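 further: phosphodiesterase inhibitor Ro 20-1724 added with compounds to block cAMP breakdown; potency means the concentration at half of the fitted maximal effect; nearly all actives have a fitted effect of over 60% in size; about a fifth of the inactives were tested at one dose only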
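Cells stably selected in G418 were plated at 2000/well, grown 16-24 hr, then given compounds in DMSO with the PDE inhibitor […] (300 uM solution added) for 30 min at 37C; cAMP was read by HTRF.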
Menin-MLL FL inh: inhibitors of human menin-MLL interaction, wild-type MLL peptide; Fluorescence polarization, fluorescein-MLL peptide displacement from menin; FP activity change, % at 61.4 µM; 290,000 tested, under 10 active; AID 1766; inconclusive = falling polarisation curve, or a change in total fluorescence; inactive = total fluorescence flat and polarisation flat or rising; no compound was filed as active; the % refers to the polarisation; negative = inhibition;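 further: % of control where 0% means no effect; inhibitors lower the polarisation; unlabelled MLL peptide was the positive control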
TRPV1 potentiator: potentiators of human vanilloid receptor 1 (TRPV1); AID 540277; potentiation, % at 8.33 µM; TRPV1-expressing cells, Fluo-8 calcium influx, capsaicin EC20 potentiation; host cell line not named in the record; control for the full effect not named in the record; hit rate 0.02% among 320,000; Q8NER1; active means potentiation above 80%; inconclusive means 30% to 80%; inactive means below 30%; further: 0% is about no effect
Target sequence (Q8NER1 whole entry, looked up): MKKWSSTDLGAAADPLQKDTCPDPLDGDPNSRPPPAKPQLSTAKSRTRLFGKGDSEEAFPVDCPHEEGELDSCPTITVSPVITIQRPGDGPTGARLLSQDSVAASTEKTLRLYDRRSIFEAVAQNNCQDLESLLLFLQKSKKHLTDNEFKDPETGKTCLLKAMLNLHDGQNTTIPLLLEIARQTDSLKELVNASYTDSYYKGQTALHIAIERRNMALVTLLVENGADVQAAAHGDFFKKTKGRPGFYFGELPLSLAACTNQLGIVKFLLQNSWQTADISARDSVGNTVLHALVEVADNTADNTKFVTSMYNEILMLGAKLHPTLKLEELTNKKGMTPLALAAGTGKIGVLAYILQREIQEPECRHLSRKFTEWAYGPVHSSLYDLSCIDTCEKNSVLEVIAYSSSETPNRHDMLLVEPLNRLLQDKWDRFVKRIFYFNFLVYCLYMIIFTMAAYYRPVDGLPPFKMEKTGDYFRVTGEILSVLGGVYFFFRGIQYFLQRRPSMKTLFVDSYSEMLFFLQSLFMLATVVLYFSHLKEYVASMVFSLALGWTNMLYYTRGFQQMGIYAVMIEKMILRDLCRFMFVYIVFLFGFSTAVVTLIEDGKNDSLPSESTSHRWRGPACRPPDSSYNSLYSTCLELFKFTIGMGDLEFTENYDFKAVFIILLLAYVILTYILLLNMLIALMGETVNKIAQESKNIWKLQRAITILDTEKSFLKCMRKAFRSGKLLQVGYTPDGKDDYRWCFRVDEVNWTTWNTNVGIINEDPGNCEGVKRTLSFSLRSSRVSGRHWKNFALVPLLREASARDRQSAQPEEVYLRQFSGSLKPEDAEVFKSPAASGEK
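TRPV1-expressing cells were cultured overnight at 35.5C and loaded with Fluo-8 calcium dye for 40 to 90 min at room temperature. After a 10 s baseline, compound was added and calcium influx was read kinetically for 3 min (ex 480/em 520 nm).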
CtBP-E1A inh: blocks the CtBP interaction with E1A; AlphaScreen GST-E1A/His-CtBP binding, 1536-well; active compounds read low; control for the full effect not named in the record; activity change, % (concentration not given with the values); hit rate 0.49% among 340,000; AID 651724; in the data active means activity change below about -65%; inconclusive means about -30% to -65%; inactive means above about -30%; further: on the % scale 0 is the no-effect control and ±100 the full control effect
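Homogeneous bead-based format: GST-tagged E1A captured on glutathione donor beads, His-tagged CtBP on nickel acceptor beads; compounds precede bead addition by 2 h at 37 °C.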
Sfp inh: inhibitors of Bacillus subtilis Sfp phosphopantetheinyl transferase | Biochemical Sfp PPTase activity, qHTS | hit rate 3.5% among 310,000 | Potency, µM, for inactives: max response, negative = inhibition, hits mostly inhibitors; active means well fitted inhibition curve with a large enough effect; inconclusive means small, poorly fitted or top-dose-only effect, or another doubt; inactive means no such curve, though single readings can be large or run the other way;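 further: the enzyme is Sfp with the accession as filed and its product quenches rhodamine fluorescence; potency means the concentration at half of the fitted maximal effect; 0% = enzyme reaction without inhibitor and -100% = no enzyme wells; top concentration of the series not given in the record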
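Sfp 15 nM + cpd, 15 min RT; start w/ rhodamine-CoA 5 uM, BHQ-2-YbbR 12.5 uM (final); 50 mM Hepes pH 7.6, 10 mM MgCl2, 0.01% NP-40, 0.01% BSA; read 525/598 nm at 0 and 30 min.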
gsp antag: gsp mutant antagonism. gsp-mutant cells, cAMP HTRF, 30 min; control for the full effect not named in the record. Potency, µM (series often up to 76.9 µM), for the others: at the highest dose activity change, negative = inhibition, actives largely listed as inhibitors. hit rate 0.4% among 340,000. AID 624288; active = falling curve of any shape with a large fitted effect; inconclusive = falling curve, mostly with a smaller effect; inactive = flat or rising curve; cell line not stated here;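 further: intracellular cAMP measured with PDE inhibitor Ro 20-1724 present during compound exposure; potency means the concentration at half of the fitted maximal effect; on the % scale 0 is the no-effect control and ±100 the full control effect; nearly all actives have a fitted effect of over 65% in size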
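G418-selected cells were plated in DMEM/10% FBS for 16-24 h at 37C, then treated with compounds plus the PDE inhibitor […] (300 uM solution added) for 30 min at 37C. Intracellular cAMP was measured by HTRF after 30 min lysis at room temperature.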
An asterisk follows results filed as active; ? = inconclusive; nt = no result given; [ ] = another dose, or the depositor's remark. This is a random part of the collection; about 5.3% have a hit in one of these screens.

no. | mol | ClpP mod | gsp ag | Menin-MLL FL inh | TRPV1 potentiator | CtBP-E1A inh | Sfp inh | gsp antag
1 | CSc1nc(C)cc(SCC(=O)N/N=C/c2ccccc2)n1 | 0.4% | 0.0% | 1.2 | 4.2 | 13.3 | -14.0% | ?
2 | Fc1cccc(Cc2noc(CN3CCOCC3)n2)c1 | -1.3% | 6.0% | 4.2 | -6.0 | nt | 21.8% | 8.2%
3 | C=C(c1ccc(OCCO)cc1)c1ccc(OCCO)cc1 | -1.6% | -4.1% | -9.5 | -3.6 | 0.0 | -6.8% | 11.1%
4 | CC(=O)Nc1ccc(S(=O)(=O)N2CCN(c3ccccn3)CC2)cc1 | ? | -8.4% | -0.3 | 12.8 | 0.9 | 19.4% | -13.5%
5 | Cc1cccc(NC(=O)N(Cc2nc3ccccc3c(=O)[nH]2)C2CCCC2)c1 | -2.8% | -20.6% | -0.9 | -5.6 | -0.5 | 6.8% | 9.7%
6 | CC1=NN(Cc2ccccc2)C(=O)C1C(c1ccccc1)C(C#N)C#N (stereo not given) | -1.1% | -18.6% | 0.3 | 3.4 | -9.8 | -2.3% | 5.6%
7 | Cc1c(NC(=O)C(C)Sc2nccn2C)c(=O)n(-c2ccccc2)n1C (stereo not given) | 1.0% | -0.3% | nt | 9.4 | nt | nt | 7.7%
8 | Cc1ccc(C)c2nc(N3CCCC3)c(C#N)cc12 | -26.7% | -25.7% | -0.6 | 3.1 | 34.4 | -9.6% | 4.5%
9 | CC(C)N1CCN(CC2COc3ccccc3O2)CC1 (stereo not given) | -0.3% | -10.2% | -4.4 | 9.3 | nt | -12.2% | 13.9%
10 | O=C(CNC(=O)c1ccc(Cl)cc1Cl)NCC(=O)Nc1ccccc1N1CCOCC1 | -5.4% | 23.5% | -0.9 | 2.1 | 5.2 | 18.7% | 5.4%[15.4 µM]
11 | CC1=CCP(=O)(c2ccccc2)C1 (stereo not given) | -0.5% | 42.2% | -2.4 | -6.1 | 1.4 | 6.1% | -7.4%
12 | Cc1cc(C)cc(N(C(=O)c2snc(C(N)=O)c2N)C(C(=O)NCC2CCCO2)c2cccs2)c1 (stereo not given) | nt | -3.7%[15.4 µM] | 0.4 | -18.2 | -0.7 | -19.1% | ?
13 | CCS(=O)(=O)c1ccc(O)c(NC(=O)/C=C/c2ccc(Cl)cc2)c1 | 1.8% | 10.9% | 4.6 | -1.0 | -4.8 | -10.2% | ?
14 | O=C(c1ccc(O)c(Cl)c1)N1CCN(S(=O)(=O)c2ccccc2)CC1 | -2.0% | -1.2%[15.4 µM] | nt | -5.1 | 7.8 | 7.6% | 2.9%
15 | O=C(c1ccco1)N1CCC(c2nc3c(nnn3Cc3c(Cl)cccc3Cl)c(=O)[nH]2)CC1 | nt | 3.3% | -5.6 | -1.8 | -2.9 | -13.6% | -8.4%
16 | COc1cc(/C=N/NC(=O)c2ccccc2O)ccc1OCC(=O)Nc1ccccc1 | 4.2% | 6.4% | -0.9 | -8.3 | -0.5 | -42.7% | -6.1%
17 | CC1(C)CC(=O)C(C=NCCc2ccccn2)=C(O)C1 | 0.4% | -12.9% | 1.8 | -0.6 | -1.2 | 19.7% | 6.9%
18 | CC1=C(C(=O)Nc2ccccn2)C(c2cn(C)nc2C)C2=C(CCCC2=O)N1 (stereo not given) | nt | 4.3%[15.4 µM] | 0.1 | -1.9 | 3.4 | 5.1% | 15.4%
19 | CCCC1CC(C#N)N(N(C)C)C1=C(C#N)C#N (stereo not given) | -1.3% | -16.4%[15.4 µM] | -3.8 | -4.4 | -3.4 | -6.6% | 13.2%
20 | CCCCOC(=O)C1C2C=C[C@]3(CN(C(C)c4ccc(OC)cc4)C(=O)[C@H]13)O2 (stereo not given in full) | 1.3% | 0.0% | 3.0 | -8.4 | -3.3 | 16.8% | 12.4%
21 | CCOC(=O)N1CCN(C(=O)CSCC(=O)N=c2sc3ccccc3n2C)CC1 | -1.6% | -15.2% | 4.4 | 22.2 | -2.3 | -0.2% | -2.0%
22 | CCCCc1cc(=O)oc2cc(OCC(=O)NC3CCN(Cc4ccccc4)CC3)ccc12 | ? | -23.3% | -2.6 | 2.3 | -6.1 | 8.3% | 7.3%
23 | O=C(NC(=S)Nc1ccccc1N1CCOCC1)c1ccco1 | 1.4% | 1.3%[15.4 µM] | 6.0 | -12.3 | -0.4 | 3.3% | 1.3%
24 | COc1ccc2nc(NC(=O)c3cc(S(=O)(=O)N4CCOCC4)ccc3C)sc2c1 | 254.4% | ? | 2.0 | -22.3 | -8.4 | 3.2% | 2.3%
25 | COc1cc(C(=O)NC2CCN(CC(=O)Nc3cccc(C)c3C)CC2)cc(OC)c1OC | nt | 0.5% | -2.2 | -0.6 | 9.2 | 8.6% | -14.4%
26 | O=C(c1ccc(-c2ccc([N+](=O)[O-])cc2)o1)N1CCN(S(=O)(=O)c2cccs2)CC1 | 1.2% | -4.5% | nt | 13.9 | -3.7 | nt | -0.8%
27 | Cc1cnc(C(=O)OCC(=O)Nc2ccc(C)c(S(=O)(=O)N(C)C)c2)cn1 | -1.6% | -12.7% | -0.2 | 7.6 | nt | 9.0% | 3.3%
28 | CCN(CC)C(=S)NC(=O)C12CC3CC(CC(C3)C1)C2 | nt | 10.8%[15.4 µM] | -0.4 | -8.1 | -17.4 | 13.2% | 12.0%
29 | CNC(=O)c1cc(C(=O)c2ccc(C(F)(F)F)cc2F)c[nH]1 | nt | 20.0%[15.4 µM] | 2.3 | -9.1 | 6.6 | 0.4% | 7.1%
30 | COc1ccc(NC(=O)N(C)C[C@H]2Oc3ccc(NC(=O)Cc4ccccc4)cc3CC(=O)N([C@H](C)CO)C[C@H]2C)cc1 | 0.1% | nt | nt | nt | -15.3 | nt | 12.0%
31 | Cc1ccc(CSCc2ccc(C(=O)NCCC(C)C)o2)cc1 | nt | -10.6%[15.4 µM] | 3.9 | -8.1 | 8.3 | 1.7% | -5.6%
32 | Cc1[nH]c(N=Nc2ccccc2)nc1N=Nc1ccccc1 | nt | 3.0%[15.4 µM] | 7.3 | -11.9 | -66.0* | -17.9% | -17.6%
33 | CCOc1ccc(N2C(=O)CN(c3cccc4ccccc34)C2=S)cc1 | 0.5% | 14.8%[15.4 µM] | -5.1 | 9.3 | 0.6 | 11.1% | 12.1%
34 | Cc1cccc(OCC(=O)NC(=S)Nc2ccc(S(=O)(=O)NC3CCCCC3)cc2)c1 | 0.2% | 1.7% | -0.8 | 13.2 | -2.7 | 1.7% | -14.8%
35 | CCCCN(C(=O)c1cccc(-n2cccc2)c1)c1c(N)n(CCCC)c(=O)[nH]c1=O | nt | -30.5%[15.4 µM] | nt | -7.9 | -1.0 | nt | 7.2%
36 | O=c1ccc(-c2ccc(S(=O)(=O)Nc3cccc([N+](=O)[O-])c3)s2)n[nH]1 | 3.8% | ? | nt | 5.8 | -9.9 | 2.9% | 0.6%
37 | Cc1cc(SCC(=O)N/N=C/c2ccc(O)c(O)c2)nc2ccccc12 | nt | -27.7% | -0.9 | -18.2 | -13.0 | -16.6% | -24.1%
38 | CCOc1ccccc1NC(=S)N1CCN(c2cccc(OC)c2)CC1 | -0.4% | ? | -3.9 | 8.2 | -5.7 | 13.8% | -5.4%
39 | CC(C)Sc1nc2ncnc(N)c2[nH]1 | nt | 11.3%[15.4 µM] | 0.9 | -4.8 | 22.6 | 14.1% | 20.0%
40 | O=C(O)CNc1ccccc1C(=O)O | 3.2% | 29.3% | -1.4 | -4.4 | 4.5 | -12.5% | 6.3%
41 | COc1ccc(OC)c(S(=O)(=O)N(C)CC(=O)Nc2ccc3c(c2)OCO3)c1 | -1.1% | -5.7% | 2.0 | -4.1 | -0.1 | 8.9% | -3.7%
42 | O=C(N/N=C/c1cccc(O)c1)N/N=C/c1cccc(O)c1 | -0.2% | -12.7%[15.4 µM] | -10.8 | 17.2 | 0.0 | 6.5% | -17.9%
43 | CC1(C)CC(=O)C2=C(C1)OC1=C(C(=O)CC(C)(C)C1)C2c1cc([N+](=O)[O-])cc([N+](=O)[O-])c1O | nt | -6.0%[15.4 µM] | -11.8 | 13.1 | nt | 11.2µM* | -17.5%
44 | Cc1ccc(-c2oc3ncnc(N)c3c2-c2ccc(C)cc2)cc1 | 28.2µM* | -4.2% | 6.6 | 13.5 | -13.1 | 10.5% | -11.7%
45 | COc1ccc(NC(=O)C(NC(=O)c2ccc(=O)[nH]c2)c2ccc(C)cc2)cc1 (stereo not given) | -0.5% | -3.8% | 3.7 | 11.0 | 11.1 | -1.3% | 11.1%
46 | CCC(C)OC(=O)n1ccc(C(=O)Nc2nccs2)n1 (stereo not given) | 0.0% | 24.7% | 0.4 | -3.6 | 12.0 | 9.0% | 4.3%
47 | C/C(=N\NC(=O)C(N)=O)c1ccc(NC(=O)c2cccs2)cc1 | nt | 5.9%[15.4 µM] | 1.9 | 3.1 | nt | 9.2% | 2.0%
48 | O=C(CSc1ncn[nH]1)N1CCN(S(=O)(=O)c2ccc(Cl)cc2)CC1 | 0.2% | -40.7%[inhibitor] | 4.9 | 15.7 | -3.0 | -1.6% | -3.5%
49 | Brc1cnc(OCc2ccccc2)nc1OCc1ccccc1 | nt | -0.9% | nt | nt | 83.7 | nt | -9.6%
50 | CCOc1ccccc1/C=C(/NC(=O)c1ccccc1)C(=O)NC(C)c1ccccc1 (stereo not given) | -1.1% | -8.7%[15.4 µM] | 4.9 | -4.3 | 4.7 | 8.8% | -12.6%
51 | C=CCNC(=S)/C(=C(\[O-])c1ccc(Cl)cc1)[n+]1ccccc1 | nt | ? | 1.5 | -5.6 | -1.3 | 8.91µM* | 7.2%
52 | CCCCCCCNC(=O)C1(CC2CC(c3ccc(Cl)cc3)=NO2)CCNCC1 (stereo not given) | -0.8% | 1.7% | -3.8 | 24.4 | -0.1 | -13.8% | 6.4%
53 | COc1ccc(C(C)(C)C)cc1NC(=O)CNc1cccc2ccccc12 | 11.2µM* | -8.6%[15.4 µM] | -0.5 | 1.3 | -0.3 | 33.3% | -1.3%
54 | CC[C@]12C(=O)N(C)C[C@H]([C@@H]3C(=O)N(C)C(=O)[C@@H]31)N2C(=O)c1ccc(Cl)cc1 | -0.3% | nt | nt | nt | 1.6 | nt | 9.7%
